High-throughput results: PubChem, several laboratories
FGF22 binding: shifts melting point of recombinant human FGF22; recombinant FGF22 thermal shift, SYPRO orange fluorescence; percent of sucrose octasulfate shift, DMSO zero; calls only at 9.99 µM; actives 1.5% (n = 340,000); AID 651658;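 active = melting point raised past a set limit in the mean and every replicate; three in four hits are not shown here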
UCH37 inh: blocks the human deubiquitinase UCH37; Q9Y5K5; purified proteasome/UCH37, Ub-AMC cleavage fluorescence; inhibition, % (concentration not given with the values); actives 0.33% (n = 330,000); AID 588478;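 active = mean of two replicates above 20%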;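 also: 0% = compound-free wells with enzyme and 100% = wells lacking proteasome; stock transfer was 100 nL into about 20 µL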
Target sequence (Q9Y5K5 whole entry, looked up): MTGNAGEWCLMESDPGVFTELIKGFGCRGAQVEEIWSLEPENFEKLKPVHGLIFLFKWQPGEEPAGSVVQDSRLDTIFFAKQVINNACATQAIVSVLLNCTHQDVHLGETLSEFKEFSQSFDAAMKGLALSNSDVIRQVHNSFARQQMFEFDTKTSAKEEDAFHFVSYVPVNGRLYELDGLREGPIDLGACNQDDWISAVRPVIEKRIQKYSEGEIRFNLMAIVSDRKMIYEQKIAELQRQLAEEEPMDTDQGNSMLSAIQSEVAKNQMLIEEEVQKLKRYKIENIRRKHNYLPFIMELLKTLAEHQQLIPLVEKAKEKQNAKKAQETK
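Material: human UCH37 enzyme supplied as purified proteasome complex / Amount: 0.15 nM proteasome as dispensed / Buffer or medium: pH 7.4 Tris-HCl (50 mM) with ovalbumin, ATP-MgCl2, DTT / Times: preincubation 30 min, reaction 25 min, room temperature / Technique: AMC fluorescence from Ub-AMC cleavage, excitation 355 nm, emission 460 nm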
rRNA inh HTS: inhibits bacterial ribosomal RNA function over humanized ribosomes | E. coli WT GFP vs humanized-ribosome RFP mutants, fluorescence, 24 h; stronger effect = lower value; DMSO median 0, no signal -100 | GFP signal change (wild-type ribosome), % (no concentration beside the values) | actives 1.6% (n = 350,000) | AID 720706;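 active = significant combined selectivity score with lowered wild-type GFP, culture density cut under 30%, mutant RFP and density less affected; inactive = any of these conditions unmet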; also: one replicate is shown; some compounds called inactive have numbers as strong as hits
ALR inh: inhibitors of human sulfhydryl oxidase ALR. P55789. purified ALR, DTT oxidation, H2O2 HRP-luminol luminescence. inhibition, % (concentration not given with the values). actives 3.8% (n = 290,000);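 active = mean and each replicate at 75% or more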;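 also: stock transfer was 7.5 nL into about 7.5 µL; 0% = neutral wells and 100% = wells with inactivated enzyme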
Target sequence (P55789 whole entry, looked up): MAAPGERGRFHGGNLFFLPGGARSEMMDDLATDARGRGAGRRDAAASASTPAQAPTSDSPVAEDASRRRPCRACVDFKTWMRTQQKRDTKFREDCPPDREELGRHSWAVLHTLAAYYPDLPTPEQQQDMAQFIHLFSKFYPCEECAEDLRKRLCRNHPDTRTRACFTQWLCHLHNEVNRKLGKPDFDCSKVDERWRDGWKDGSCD
E coli growth: blocks Escherichia coli growth | OD600, 23 h; stronger effect = lower value | OD600 absorbance (test concentration not listed) | actives 0.21% (n = 330,000) | AID 1053175;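 active = OD600 absorbance below the run mean of sample wells minus 3.6 SD, in any replicate, cut at about 0.56 in these data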;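 also: stock transfer was 300 nL into about 60 µL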
HNF4A DNA FP: change in binding of human HNF4 alpha to DNA; P41235; activity change, % at 10 µM; actives 0.3% (n = 360,000); HNF4a-FITC DNA binding, fluorescence polarization, 1 h; in the data active = activity change above about 30%, passing the limit was not always enough;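 also: controls were the assay level and a saturating level of protein; the project sought stronger binding though the title names inhibitors; some compounds called inactive have numbers as strong as hits; positive values seem to mean higher polarization but the record does not say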
Target sequence (P41235 whole entry, looked up): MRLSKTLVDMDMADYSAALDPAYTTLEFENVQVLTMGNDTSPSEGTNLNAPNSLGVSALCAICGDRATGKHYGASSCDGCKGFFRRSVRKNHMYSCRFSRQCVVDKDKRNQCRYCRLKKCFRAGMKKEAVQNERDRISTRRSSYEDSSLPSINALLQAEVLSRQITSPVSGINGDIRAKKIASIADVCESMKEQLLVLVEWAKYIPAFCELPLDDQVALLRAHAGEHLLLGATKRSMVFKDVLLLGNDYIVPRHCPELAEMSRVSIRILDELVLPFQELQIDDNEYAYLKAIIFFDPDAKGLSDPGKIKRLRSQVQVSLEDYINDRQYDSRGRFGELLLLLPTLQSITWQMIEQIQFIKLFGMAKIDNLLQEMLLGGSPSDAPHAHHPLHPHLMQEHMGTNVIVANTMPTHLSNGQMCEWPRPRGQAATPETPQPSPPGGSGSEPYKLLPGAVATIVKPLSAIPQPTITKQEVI
Beta2AR agonist: activates human beta-2 adrenergic receptor causing internalization | actives 0.43% (n = 340,000) | response, % (concentration not given with the values) | P07550 | Am2.2-beta2AR cells, FAP receptor internalization, flow cytometry; reference of the scale not given here | AID 504454;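 active = response above a set limit, near 3 SD of response in nonfluorescent compounds, cut at about 42% in these data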;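 also: stock transfer was 100 nL into about 11 µL; a reference agonist was the positive control; negative values mostly stem from fluorescent compounds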
rRNA inh HTS OD600: recorded beside rRNA inh HTS, whose call it bears; OD600 change, %; measured here: OD600 growth;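 optical density of the mix in the first replicate; 0 = DMSO median and -100 = no signal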
rRNA inh HTS RFP: also measured in rRNA inh HTS; calls as there; RFP signal change, %; measured here: RFP humanized mutant strains;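 first replicate; 0 = DMSO median and -100 = no signal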
Numbers without * were called inactive; i = inactive; / = no result given; + = active, no number; & = joins results of further samples. An excerpt. The share of hits here may be higher or lower than overall.

SMILES	FGF22 binding	UCH37 inh	rRNA inh HTS	rRNA inh HTS OD600	rRNA inh HTS RFP	ALR inh	E coli growth	HNF4A DNA FP	Beta2AR agonist
COc1ccc(OC)c(N(CC(=O)Nc2cccc(C(F)(F)F)c2)S(C)(=O)=O)c1	i	2.8	6	10	0.5	-2	0.66	-5.3	-2
CC(=O)Nc1ccc(S(=O)(=O)Nc2cccc3[nH]ncc23)cc1	i	-0.5	13	-1	-1.9	-10	0.68	3.5	-2
O=C1C(F)=CC(COC(c2ccccc2)(c2ccccc2)c2ccccc2)OC1n1cc(F)c(=O)[nH]c1=O (stereo unspecified)	i	/	-1	-27	0.4	/	/	0.8	87*
CC(C)(C)c1csc(N(CCC#N)CCC#N)n1	/	-0.6	/	/	/	5	0.65	0.5	9
O=C(/C=C/c1ccccc1Cl)Nc1cccnc1	i	2.7	-19	-16	-4.8	11	0.64	-0.1	-3
CCOc1ccc(-n2cnnn2)cc1S(=O)(=O)NCc1ccccc1	/	0.8	/	/	/	-2	0.68	0.9	-3
COc1ccc(-n2cnc(N)c2C(=O)c2cccc([N+](=O)[O-])c2)cc1	i	2.6	20	13	-3.3	0	0.73	-0.9	4
CC(NC(=O)C(=O)NN=C1CCCCCC1)c1ccccc1 (stereo unspecified)	/	-3.4	/	/	/	-3	0.73	1.4	-11
COc1ccc(N2CC(C(=O)Nc3nnc(SCc4cccnc4)s3)CC2=O)cc1 (stereo unspecified)	i	0.0	-3	2	-0.5	20	0.63	-1.9	-7
O=C(c1cccs1)N1CCC(c2nc3ccccc3s2)CC1	i	0.8	-28	-26	9.8	99*	0.65	28	6
O=C(NNS(=O)(=O)c1ccc([N+](=O)[O-])cc1)c1ccccc1	i	/	-9	9	-4.0	/	/	3.8	3
O=C1Nc2c(Cl)cccc2C1=O	i	/	-4	3	0.7	/	/	-4.0	/
CC(=O)c1ccc(OC(=O)c2ccc(-n3nc(C)cc3C)cc2)cc1	i	1.4	29	23	1.6	5	0.68	-0.8	-1
O=C(O)C1C2C=CC(C2)C1C(=O)NCCc1ccccc1 (stereo unspecified)	/	-0.6	/	/	/	-1	0.73	3.0	-3
COc1ccc(CNC(=O)CC2C[C@H](C(=O)N(C(C)C)C(C)C)[C@@]3(C)c4[nH]c5ccccc5c4CCN3C2=O)cc1OC (stereo partly specified)	i	5.1	-2	-14	-3.9	-2	0.7	1.8	-1
CC(=O)Nc1ccc2c(c1)nc(CCN1CCN(C)CC1)n2C	/	-0.1	/	/	/	-7	0.7	3.4	0
CC1CC(C)CN(CCCNC(=O)c2csc3c2CCCC3)C1 (stereo unspecified)	/	2.9	/	/	/	1	0.65	-4.9	1
COCCn1c(SCC(N)=O)nc2c(c1=O)SC(C)C2 (stereo unspecified)	i	8.6	15	17	1.7	0	0.7	0.9	-1
Cc1cccc(NCC(=O)N/N=C\c2c[nH]c3ccccc23)c1	i	/	-16	-12	1.2	23	/	-6.9	6
CCC(C)n1c(SCC(=O)NC2CCS(=O)(=O)C2)nc2ccccc2c1=O (stereo unspecified)	i	3.8	12	5	-0.4	0	0.7	-2.0	1
COc1ccccc1N/C(=N/S(=O)(=O)c1ccc(C)cc1)c1ccc(Cl)cc1	/	5.1	/	/	/	-3	0.69	-0.8	-11
Cc1cccc(C)c1NC(=O)Cn1cnc2c(=O)n(C)c(=O)n(C)c21	/	4.6	/	/	/	-5	0.69	1.1	0
O=C(Nc1cccc(-n2cnnn2)c1)C1CCCN(C(=O)Cc2cccc(Cl)c2)C1 (stereo unspecified)	i	/	2	0	2.0	/	/	3.5	/
Clc1ccc(C[n+]2cc(-c3ccccc3)n3c2CCC3)cc1	i	2.6	3	-2	-0.9	-3	0.7	-1.9	-11
O=C(O)COc1ccccc1/C=N/NC(=O)COc1ccc(-c2ccccc2)cc1	i	/	20	9	2.1	5	/	1.1	6
CCOc1ccc(Cc2nnc(SCC(=O)c3ccc(OC)cc3)o2)cc1	i	4.7	-3	-4	-1.3	-1	0.7	-3.9	-1
O=C(NC(=S)NNC(=O)c1ccccc1O)c1cccnc1	i	6.4	-34	-46	-7.4	55	0.61	-1.3	-4
CC(OC(=O)CC1CCCC1)C(=O)Nc1ccc(Cl)cn1 (stereo unspecified)	i	0.6	-3	-15	-1.6	-2	0.63	-0.8	-9
CCOC(=O)N1CCN(C(=O)c2c(-c3ccccc3Cl)noc2C)CC1	i	3.3	-2	-2	0.7	-7	0.61	0.9	13
COc1ccc(-n2c(C)c([N+](=O)[O-])c3ccc(O)c(CN4CCCCC4)c32)cc1	/	5.1	/	/	/	45	0.71	2.8	10
CC(C)(C)NC(=O)CN(C(=O)CCN1CCCc2ccccc21)C(C)(C)C	i	2.9	19	-4	2.3	94*	0.69	-16	-2
CCN(CC)S(=O)(=O)c1ccc(OC)c(NC(=O)c2ccc(-n3cncn3)c([N+](=O)[O-])c2)c1	/	0.6	9	5	-0.3	/	0.65	-3.2	2
CC(=O)Nc1ccc(S(=O)(=O)Nc2nc3ccccc3nc2Nc2cccc(S(N)(=O)=O)c2)cc1	+	-9.7	5	8	-2.2	-3	0.68	0.0	-8
CC(Sc1nnc2ccccn12)C(=O)NCc1ccc2c(c1)OCO2 (stereo unspecified)	i	-11	7	9	1.8	-2	0.69	-4.1	-3
CCOC(=O)c1nnn(-c2nonc2N)c1-c1ccc(Cl)cc1	i	/	-25	-28	-2.6	12	/	2.7	-2
Cc1c(Br)c([N+](=O)[O-])nn1CC(=O)Nc1sc2c(c1C(=O)OC(C)C)CCCC2	/	4.0	/	/	/	/	0.71	1.7	8

The list goes on, overlapping the part above by five compounds.
SMILES	FGF22 binding	UCH37 inh	rRNA inh HTS	rRNA inh HTS OD600	rRNA inh HTS RFP	ALR inh	E coli growth	HNF4A DNA FP	Beta2AR agonist
CCN(CC)S(=O)(=O)c1ccc(OC)c(NC(=O)c2ccc(-n3cncn3)c([N+](=O)[O-])c2)c1	/	0.6	9	5	-0.3	/	0.65	-3.2	2
CC(=O)Nc1ccc(S(=O)(=O)Nc2nc3ccccc3nc2Nc2cccc(S(N)(=O)=O)c2)cc1	+	-9.7	5	8	-2.2	-3	0.68	0.0	-8
CC(Sc1nnc2ccccn12)C(=O)NCc1ccc2c(c1)OCO2 (stereo unspecified)	i	-11	7	9	1.8	-2	0.69	-4.1	-3
CCOC(=O)c1nnn(-c2nonc2N)c1-c1ccc(Cl)cc1	i	/	-25	-28	-2.6	12	/	2.7	-2
Cc1c(Br)c([N+](=O)[O-])nn1CC(=O)Nc1sc2c(c1C(=O)OC(C)C)CCCC2	/	4.0	/	/	/	/	0.71	1.7	8
Cc1nnc(-c2cnn(C)c2N)n1Cc1ccccc1	/	5.0	/	/	/	-1	0.73	-0.6	-6
Cn1ccc(C(=O)Oc2ccc(C(=O)Nc3ccc(F)cc3F)cc2)n1	i	2.9	2	1	1.6	-1	0.7	-3.3	2
COC(=O)c1cc(=O)n(C2CC2)c(=NC2CC2)s1	/	1.6	/	/	/	-3	0.71	1.1	11
CC(=O)NC(C)c1nc2ccccc2n1C(C)C (stereo unspecified)	i	3.9	4	9	-1.3	-5	0.76	-5.0	0
CC1(C(=O)Nc2cccc(OC(F)(F)F)c2)Cc2c(-c3ccc(C(N)=O)cc3)ccnc2O1 (stereo unspecified)	i	/	-3	9	1.0	/	/	-3.0	/
CNC[C@H]1Oc2c(NC(=O)c3ccc(-c4nccs4)cc3)cccc2C(=O)N([C@@H](C)CO)C[C@@H]1C	i	-0.4	0&6	6&17	-0.9&7.4	2	0.77	-2.5	-8
CCOc1ccc(Br)cc1C(=S)N1CCCC1	i	4.9	16	11	4.1	-3	0.68	1.6	-6
CC(Sc1cccc[n+]1[O-])C(=O)Nc1cc(Cl)c(Cl)cc1Cl (stereo unspecified)	i	3.8	-16	-17	-7.5	2	0.66	0.1	-4
CNC(=S)NC1(C)CCS(=O)(=O)C1 (stereo unspecified)	i	-2.4	12	12	1.2	/	0.68	-2.1	-2
Cc1cccc(-n2ncc3c2CCCC3NC(=O)C2CCOCC2)c1C (stereo unspecified)	i	-1.0	3	0	0.4	1	0.73	-3.6	-3
O=C1CC(C(=O)Nc2ncccn2)C(c2ccccc2)O1 (stereo unspecified)	/	2.4	/	/	/	-6	0.68	2.2	1
CCOc1ccccc1C(=O)NC1CC2CCCC(C1)N2C1CC1 (stereo unspecified)	/	4.2	/	/	/	/	0.71	-2.9	-12
COc1ccc(CC(=O)N2CC(C)CC(C)C2)cc1OC (stereo unspecified)	/	0.1	/	/	/	-4	0.69	2.0	8
CN(C(=O)C1CCCCC1)C1(C)CCS(=O)(=O)C1 (stereo unspecified)	/	0.6	-4	-13	-2.8	3	0.66	1.7	5
CC(C)NS(=O)(=O)c1ccc(OCC(=O)NCCC2=CCCCC2)cc1	/	18	/	/	/	-5	0.7	0.1	-7
CCS(=O)(=O)N1CCC(NC(C)=O)(c2ccccc2)CC1	/	-0.8	/	/	/	-18	0.72	9.4	-7
CC(=O)c1cccc(NC(=O)N2C3CCC2CC(NC(=O)Nc2ccccc2)C3)c1 (stereo unspecified)	i	2.3	1	3	-3.6	6	0.69	-1.9	-11
COCCCNC(=S)NC1CC2CCCC(C1)N2Cc1ccco1 (stereo unspecified)	/	-0.5	/	/	/	0	0.7	-0.6	-2
CCC(C)(C)NC(=O)/C=C/c1ccccc1[N+](=O)[O-]	i	3.4	5	-6	-3.8	95*	0.68	-9.8	-11
COc1cc(/C=N/NC(N)=S)ccc1OC(=O)c1ccc(C)cc1	/	/	/	/	/	36	/	-3.7	4
O=C(NC1CCCCCC1)C1CCN(S(=O)(=O)N2CCC3(CC2)OCCO3)CC1	i	4.0	-3	-1	-3.2	-1	0.69	-0.1	0
COc1ccc(-c2noc(Cn3cc(S(=O)(=O)N4CCCC4)ccc3=O)n2)cc1	i	-2.5	12	15	1.5	/	0.65	1.3	2
O=C(N/N=C\c1cccnc1)c1ccc(Cl)s1	i	/	-1	3	-0.2	-1	/	3.0	-9
Nc1ccc2nc(CCc3ccccc3)[nH]c2c1	i	/	-2	6	-3.0	99*	/	0.3	-8
COc1ccc(NC(=O)C2Cc3c(-c4cccc(C(C)=O)c4)ccnc3O2)cn1 (stereo unspecified)	i	/	-18	-18	1.4	/	/	-3.0	/
Cc1ccccc1OCCOc1cccc(/C=N/NC(=O)Cc2nnc(N)s2)c1	/	/	/	/	/	-11	/	1.0	-2
CSCCC(NC(=O)c1ccc([N+](=O)[O-])cc1Cl)C(=O)OCC(=O)NC(=O)CN1CCCC1=O (stereo unspecified)	i	1.9	-8	1	-3.1	-33	0.7	0.4	3
Cn1cccc1C1Nc2ccccc2NC2=C1C(=O)CC(C)(C)C2 (stereo unspecified)	/	0.4	/	/	/	9	0.69	-8.7	2
Cc1ccc(C(=O)NCc2ccc3c(c2)OCO3)cc1S(=O)(=O)N1CCOCC1	/	2.9	-13	-11	2.1	-3	0.65	2.5	1
COc1ccc(Br)cc1S(=O)(=O)n1ccnc1	/	0.9	/	/	/	40	0.68	2.0	-3
COc1ccc(NC(=O)C2CCC(CNc3c(N4CCOCC4)c(=O)c3=O)CC2)cc1Cl (stereo unspecified)	i	3.1	-1	-6	-7.2	-5	0.7	1.8	-2
Cc1cc(NC(=O)c2ccccc2)ccc1NC(=O)Cc1ccccc1	i	-3.2	15	16	2.1	1	0.61	-1.8	-5
